# High-throughput results as filed in PubChem BioAssay.
# 26S disassembly = blocks ATP-dependent breakdown of the yeast 26S proteasome; anti-FLAG beads, GFP-proteasome disassembly, flow cytometry; inhibition of disassembly, % (concentration not given with the values); 24,000 tested, 0.2% active; AID 751;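 active = above 40%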;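 note: plate controls were ATP control with full disassembly for no effect and ATP-gamma-S intact proteasomes for full effect; higher percent means more bead fluorescence retained so stronger block of disassembly; stock transfer was 100 nL into about 10 µL; wells with too few beads may also be inconclusive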
# VCAM-1 rise = boosters of cytokine-driven VCAM-1 levels – cell-based, plate reader, pooled HUVEC, TNFa stimulus (AID 455). HUVEC TNFa-induced VCAM-1 immunofluorescence, plate reader; numbers were filed only for top-ranked candidate wells. augmentation, % at 5 µM. 10,000 tested, 0.2% active;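 active = a compound raising TNF-alpha-driven VCAM-1 surface staining, with its hit status upheld on visual or statistical review; inactive = the rest, including hits rejected on review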;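 note: 0% = TNFa with vehicle and 100% = strongest image-checked hit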
# An asterisk follows results filed as active; i = inactive; · = not tested or not shown. Not all compounds are listed; rates above refer to the full screens.
# Under each structure – 26S disassembly, VCAM-1 rise
- COc1cccc(-n2nnc3c(=O)n(Cc4ccc(F)cc4)cnc32)c1
    -1.9, ·
- Cn1c(SCc2nc3ccccc3c(=O)[nH]2)nnc1-c1ccco1
    1.6, i
- COc1cccc(Cn2c(Oc3ccccc3)nc3c2c(=O)n(C)c(=O)n3C)c1
    -3.5, i
- O=C(Nc1cccc2nsnc12)c1ccc2c(c1)OCCO2
    -1.8, ·
- CCCn1c(SCC(=O)Nc2cc(C)on2)nc2c1c(=O)n(C)c(=O)n2C
    -1.9, i
- COc1ccccc1-n1c(=S)sc2c(=O)n(Cc3ccco3)c(SC)nc21
    0.7, ·
- O=C(NC1CC2CCC1C2)C1COc2ccccc2O1 (stereo unspecified)
    -2.4, i
- CC(=O)Nc1cc(NC(C)=O)c2nc(N)sc2c1
    -0.5, ·
- O=C(c1cccs1)N1CCN=C1SCc1ccccc1
    -1.0, i
- Cc1cccc(NC(=O)Cn2cnc3sc(C)c(S(=O)(=O)N4CCC(C)CC4)c3c2=O)n1
    0.5, ·
- CCOC(=O)C1CCCN(C(=O)c2ccc(CS(=O)(=O)c3ccc(C)cc3)o2)C1 (stereo unspecified)
    -0.5, ·
- O=C(CN1CCN(c2ccc(F)cc2)CC1)c1ccc2c(c1)OCO2
    3.7, ·
- CC(C)OC(=O)CSc1nnc(-c2ccccn2)n1-c1ccccc1
    -0.4, i
- O=C(O)Cn1nnnc1SCC(=O)Nc1ccc(OC(F)(F)F)cc1
    0.4, ·
- O=C(CCNS(=O)(=O)c1cccc2nsnc12)NCCc1ccccc1
    0.0, ·
- O=S1(=O)Nc2c(ccc3cccnc23)-c2ccccc21
    0.7, i
- CCOC(=O)c1cc2sc(C)cc2n1CC(=O)NCc1ccc(F)cc1
    -0.4, i
- CC(=O)N1CCc2cc(Br)cc(S(=O)(=O)NCCCN3CCC(C)CC3)c21
    -1.6, ·
- CCCC(=O)Nc1c2c(nn1-c1ccc(OC)cc1)CS(=O)(=O)C2
    -1.3, ·
- N#Cc1nc(COc2cccc(Cl)c2)oc1N1CCCC1
    -1.6, ·
- COc1cccc(CNC(=O)Cn2c(=O)oc3ccccc32)c1OC
    -0.8, i
- CCOC(=O)CSC1=Nc2ccccc2C2=NC(CC(=O)NCc3ccc4c(c3)OCO4)C(=O)N12 (stereo unspecified)
    1.5, ·
- CCOC(=O)Cn1c(=O)oc2cc(S(=O)(=O)NC3CCCc4ccccc43)ccc21 (stereo unspecified)
    0.1, ·
- O=C(CCc1ccccc1)N1CCN(CCO)CC1
    0.9, ·
- COc1ccc(-n2c(=O)cc(N3CCN(c4ccccc4OC)CC3)[nH]c2=O)cc1
    -1.2, ·
- O=C(CCCn1c(=O)[nH]c2ccsc2c1=O)N1CCCCC1
    -2.1, ·
- Cc1cccc(CN2CCN(C(c3ccccc3)c3ccc(Cl)cc3)CC2)c1 (stereo unspecified)
    0.6, i
- Cc1cc(=O)oc2cc(Oc3ncccn3)ccc12
    0.5, i
- C=CCN1C(=O)/C(=C2\SC(N3CCOCC3)=NC2=O)c2cc(Br)ccc21
    0.3, i
- Cn1nc(-c2ccc(C(=O)NCC3CCCO3)cc2)c2ccccc2c1=O (stereo unspecified)
    -0.3, i
- Cc1cc(=O)oc(C)c1C(=O)NCCCN1CCN(c2ccc(F)cc2)CC1
    0.3, ·
- CCOC(=O)N1CCN(C(=O)Cn2ncn3nc(-c4cccs4)cc3c2=O)CC1
    0.4, i
- C(=C\c1ccccc1)/CN1CCN(Cc2ccc3c(c2)OCCO3)CC1
    2.3, i
- COc1cccc(N2CCN(c3c4c(nc5ncnn35)CCC4)CC2)c1
    -3.1, i
- O=C(Nc1c(C(=O)Nc2cccc(F)c2)oc2ccccc12)c1ccc2c(c1)OCO2
    -1.4, ·
- CC1(C)OC(=O)C(=CNCC(O)c2ccccc2)C(=O)O1 (stereo unspecified)
    -1.4, ·
- CCCCC(CC)CNC(=O)c1[nH]c(C)c(C(C)=O)c1C (stereo unspecified)
    0.3, ·
- N=c1c2c(n(Cc3ccc(Cl)c(Cl)c3)c3c1CCC3)CCCC2
    -2.2, ·
- CCOC(=O)C(C)Sc1ccc2nnc(-c3ccc(F)cc3)n2n1 (stereo unspecified)
    1.6, ·
- CCC1CCCCN1CCNS(=O)(=O)c1ccc2c(c1)oc(=O)n2C (stereo unspecified)
    1.4, i
- COc1cc2ccccc2cc1-c1nnc(COc2ccccc2)o1
    -0.9, ·
- CCOC(=O)c1ccc(-c2c(C(=O)OCC)oc3cc(O)c(CC)cc3c2=O)o1
    2.5, i
- CCn1cc(C(=O)NCC2COc3ccccc3O2)c2cc(OC)c(OC)cc2c1=O (stereo unspecified)
    1.4, i
- O=C(Nc1ccc(OC(=O)c2cccnc2)cc1)c1cccnc1
    -0.6, ·
- CCCc1cc(C(=O)Nc2ccc(C)cc2)no1
    0.8, ·
- O=C(NC1CCCCCC1)c1cc(S(=O)(=O)N2CCC3(CC2)OCCO3)ccc1F
    -1.3, i
- O=C(CCNS(=O)(=O)c1cccc2nsnc12)NC1CCN(Cc2ccccc2)CC1
    0.3, ·
- CCOC(=O)C1CCN(C(=O)Cc2c(C(=O)O)[nH]c3ccccc23)CC1
    1.8, ·
- CCOC(=O)N1CCC(NC(=O)CSCc2nc(-c3cccc(OC)c3)oc2C)CC1
    -1.8, i
- O=C(NCCN1CCc2ccccc2C1)C1CCN(S(=O)(=O)N2CCCCC2)CC1
    0.0, ·

# Remaining list, next part.
# Under each structure – 26S disassembly, VCAM-1 rise
- CCOCCCNC(=O)C1CCN(C(=O)Nc2ccc(Cl)cc2)CC1
    0.1, i
- COc1cc(OC)cc(-c2cc3nc(C)c(CCC(=O)NC(C)CCc4ccco4)c(C)n3n2)c1 (stereo unspecified)
    1.1, ·
- Nc1c(-c2ccc(Cl)cc2)nnn1-c1ccccc1
    0.9, ·
- Cc1ccc2oc(=O)c3cnn(CC(=O)NCCCOC(C)C)c3c2c1
    -1.2, ·
- COc1ccc(N2C(=O)CCC(C(=O)Nc3cccc(C)n3)C2c2ccc(OC)c(OC)c2)cc1 (stereo unspecified)
    -0.6, ·
- O=C(NC1CCCCCC1)c1nnc(Cc2ccc(Cl)cc2)o1
    -2.3, ·
- Cn1c(=O)oc2cc(S(=O)(=O)NCc3ccccn3)ccc21
    -5.1, ·
- O=C(C1CCN(S(=O)(=O)c2cnc[nH]2)CC1)N1CCN(c2ncccn2)CC1
    0.2, i
- Cc1c(C(=O)O)[nH]c2c1C(=O)CC(c1ccccc1)C2 (stereo unspecified)
    -0.8, ·
- O=C(NCc1cccnc1)C1c2ccccc2C(=O)N1Cc1ccco1 (stereo unspecified)
    2.1, i

# 4 records picked at random from those above, as already listed:
# Under each structure – 26S disassembly, VCAM-1 rise
- O=S1(=O)Nc2c(ccc3cccnc23)-c2ccccc21
    0.7, i
- CCOC(=O)C(C)Sc1ccc2nnc(-c3ccc(F)cc3)n2n1 (stereo unspecified)
    1.6, ·
- CCOC(=O)Cn1c(=O)oc2cc(S(=O)(=O)NC3CCCc4ccccc43)ccc21 (stereo unspecified)
    0.1, ·
- O=C(NCc1cccnc1)C1c2ccccc2C(=O)N1Cc1ccco1 (stereo unspecified)
    2.1, i

# (next part)
# Under each structure – 26S disassembly, VCAM-1 rise
- COc1ccc(C(=O)Nc2ccc(S(=O)(=O)Nc3nccnc3OC)cc2)cc1OC
    -3.4, i
- COc1ccc(NC(=O)CN2CCN(C3c4ccccc4-c4ccccc43)CC2)c(OC)c1
    3.5, ·
- Cc1cccc(C)c1OCC(=O)Nc1cccc(NC(=O)c2ccco2)c1
    1.9, i
- Cc1ccc(S(=O)(=O)Cn2nnnc2CN(Cc2ccco2)Cc2cccs2)cc1
    0.1, i
- CC(C)c1ccc(-c2nc(N3CCCCC3)[nH]c(=O)c2C#N)cc1
    2.4, i
- CCC(=O)N1CCc2cc(S(=O)(=O)N3CCN(C(=O)c4ccco4)CC3)ccc21
    -0.9, ·
- CC(Oc1ccc(Cl)cc1Cl)C(=O)NCCCN1CCOCC1 (stereo unspecified)
    3.2, ·
- O=C(COC(=O)C1(c2ccccc2F)CCCC1)NC1CCS(=O)(=O)C1 (stereo unspecified)
    0.4, i
- CCCCCSc1nnc2c(n1)OC(C)N(C(C)=O)c1ccccc1-2 (stereo unspecified)
    -2.0, ·
- CC(NC(=O)Nc1ccccn1)N1C(=O)C2C3C=CC(C3)C2C1=O (stereo unspecified)
    0.0, ·
- CCCN(c1ccc(C(C)C)cc1)S(=O)(=O)c1c(C)[nH]c(=O)[nH]c1=O
    3.0, ·
- O=C(Nn1cc(C(=O)N2CCN(c3ccccc3F)CC2)c2ccccc2c1=O)c1cnccn1
    -1.9, ·
- CNC(=O)C1CC(=O)N(c2ccc(F)c(Cl)c2)C1 (stereo unspecified)
    -0.8, ·
- CC(=O)N1CCc2cc(C(=O)CN3CCCCC3)ccc21
    -3.2, ·
- Cc1cc2c(c(=O)o1)C(C13C=CC(CC1)C3)C(C#N)=C(N)O2 (stereo unspecified)
    -3.3, i
- CCc1nn(CC(=O)NCCCN2CCCC2=O)c(=O)c2cc3sccc3n12
    -0.3, ·
- O=C(OCN1C(=O)c2ccccc2C1=O)c1ccc2c(=O)n3c(nc2c1)CCC3
    -2.1, i
- CC(=O)Nc1cc(C(=O)N2CCCC2)ccc1S(=O)(=O)c1ccc(C)cc1
    0.9, ·
- CCOc1ccc(C(C)=O)cc1N1C(=O)C2C3C=CC(O3)C2C1=O (stereo unspecified)
    1.5, ·
- O=C(NS(=O)(=O)c1ccc(NC(=O)C2CCCO2)cc1)c1ccccc1 (stereo unspecified)
    -1.1, i
- COc1cc(OC)c(NS(=O)(=O)c2coc(C(N)=O)c2)cc1Cl
    -1.6, ·
- Cc1cc(NC(=O)c2cc(-c3cccs3)nc3ccccc23)no1
    -0.5, ·
- CC1(C)Cc2ccccc2C(=NCCCC(=O)O)N1
    0.8, ·
- CC1CCN(c2c(NCc3ccc(C(=O)NCc4cccnc4)cc3)c(=O)c2=O)CC1
    -0.4, ·
- CCCC1(C(=O)O)NC(c2ccc(OC)cc2O)C2C(=O)N(c3ccc(OC)cc3)C(=O)C21 (stereo unspecified)
    0.8, ·
- CN(C(=O)c1c(Cl)nc2sccn12)C1CCCCC1
    0.3, i
- CCOC(=O)N1CCN(S(=O)(=O)c2ccc3c(c2)SC(C)C(=O)N3)CC1 (stereo unspecified)
    0.0, ·
- CN(C)S(=O)(=O)c1ccc(C(=O)NCc2cccs2)cc1
    2.4, i
- COCCCN1C(=O)C(O)=C(C(=O)c2ccco2)C1c1ccc(Br)cc1 (stereo unspecified)
    0.7, i
- O=C(NCSc1ccncn1)c1ccccc1
    -3.3, ·
- Cc1cccc(NC(=O)NCCN2C(=O)C3C4C=CC(C4)C3C2=O)c1 (stereo unspecified)
    -1.5, ·
- COc1ccc(CCNC(=O)c2cc(-c3cccs3)on2)cc1OC
    0.1, ·
- CCC(=O)N1CCc2cc(S(=O)(=O)NC(C(=O)N3CCc4ccccc4C3)C(C)C)ccc21 (stereo unspecified)
    -0.6, ·
- COc1cc2c(C(=O)NCc3ccccn3)cn(CC(C)C)c(=O)c2cc1OC
    1.3, ·
- Cc1cc(OCC(=O)N(C)C)c2c(-c3ccccc3)cc(=O)oc2c1
    0.1, ·
- CC(=O)Nc1cccc(NC(=O)c2ccco2)c1
    0.8, i
- CC(=O)C1=C(C)Nc2ncnn2C1c1ccccc1Cl (stereo unspecified)
    -0.3, ·
- C#CC(C)(CC)NC(=O)c1cc(OC)c(OC)c(OC)c1 (stereo unspecified)
    -0.9, ·
- CCCCOC(=O)Cn1c(=N)n(CCC)c2ccccc21
    4.8, ·
- Nc1nc(CSc2nc3ccccc3[nH]2)nc(N2CCOCC2)n1
    -1.7, i
- Cc1cccc(N2CCN(S(=O)(=O)c3ccc4c(c3)c(=O)n(C)c(=O)n4C)CC2C)c1 (stereo unspecified)
    -0.4, ·
- CCn1c(C)csc1=NC(=O)c1ccccc1O
    0.7, ·
- O=C(NCCCN1CCOCC1)c1cc(-c2cccs2)on1
    0.0, ·
- Cc1ccc(Cn2ccc(NC(=O)c3cc(-c4ccco4)on3)n2)cc1
    -0.7, ·
- CC(=O)Nc1ccc(S(=O)(=O)CCC#N)cc1
    -2.1, i
- CC(=O)C(Sc1ncnc2c1nnn2-c1ccc(F)cc1)C(=O)N(C)C (stereo unspecified)
    1.1, i
- COc1ccc(NC(=O)CN2C(=O)CC(C)(C)S(=O)(=O)c3ccccc32)cc1
    0.4, ·
- O=C(CCN1C(=O)C2C3C=CC(C3)C2C1=O)Nc1c(F)cc(F)cc1Br (stereo unspecified)
    1.4, i
- CCn1c(SCC(=O)Nc2cccc(C)c2)nc2c(c1=O)SC(C)C2 (stereo unspecified)
    0.6, i
- COc1ccc(OC)c(C(=O)c2ccc(C(=O)O)cc2)c1
    -0.4, i

# Reprinted from the part before: 2 entries, followed by the next part.
# Under each structure – 26S disassembly, VCAM-1 rise
- CCn1c(SCC(=O)Nc2cccc(C)c2)nc2c(c1=O)SC(C)C2 (stereo unspecified)
    0.6, i
- COc1ccc(OC)c(C(=O)c2ccc(C(=O)O)cc2)c1
    -0.4, i
- CCSc1nnc(NC(=O)CSc2nccn2-c2cccc(C)c2C)s1
    -0.1, ·
- O=C(CCNS(=O)(=O)c1ccc2c(c1)CCC(=O)N2)Nc1ccc2c(c1)OCCO2
    1.2, ·
- COc1cccc(C2C(C(=O)c3cc4ccccc4o3)=C(O)C(=O)N2CCN(C)C)c1OC (stereo unspecified)
    0.1, i
- COCCCNC(=O)c1cc2c(s1)CS(=O)(=O)C2
    -0.1, ·
- COc1ccc(C)cc1NC(=O)c1cc2c(C)nc3ccccc3c2o1
    -1.7, ·
- CC1(C)CC(=O)c2c(noc2-c2ccccc2)C1
    -2.0, ·
- COc1ccc(C2CC(c3ccco3)n3ncnc3N2)cc1 (stereo unspecified)
    1.2, i
- O=C(c1ccc(=O)[nH]c1)N(Cc1ccco1)C1(C(=O)NC2CCCC2)CCCCC1
    -0.6, i
